High-throughput results as filed in PubChem BioAssay.
miR-21 reporter – qHTS Assay for Modulators of miRNAs and/orActivators of miR-21 | HeLa miR-21 FLuc reporter, luciferase, 48 h | Potency, µM (doses to about 38.3 µM), for inactives: top-dose reporter change, positive = more light | 340,000 tested, under 10 active | AID 2288, 2010; active = well fitted rising curve with a large enough effect; inconclusive = small, poorly fitted or top-dose-only effect; inactive = no such curve, though single readings can be large or run the other way;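 further: % of control where 0% means no effect; miR-21 action dims this reporter so a rising signal means less miR-21 action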
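Compounds were titrated across several concentrations (up to approximately 40 uM) and incubated 48 hours with HeLa miR-21-FLuc reporter cells (miR-21 target sequence downstream of FLuc, endogenous miR-21). Readout was firefly luciferase luminescence after lytic detection reagent.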
* hit, by the source's call; ? = inconclusive. Some of the compounds tested (hit frequency here may not be typical).

SMILES	miR-21 reporter
Cc1c(C)n(Cc2ccccc2)c2ccc(C(=O)NCc3ccccc3F)cc12	-20.8%
COc1ccc2[nH]cc(CCN=C(NC(=O)c3ccccc3F)Nc3nc(C)cc(C)n3)c2c1	-12.6%
Cc1ccc(CNC(=O)C2CCN(c3ncnc4c3nc3n4CCCCC3)CC2)cc1	2.0%
Cn1c(=O)n(Cc2ccccc2)c(=O)c2c1nc1n2CCN1c1ccccc1	0.4%
O=C(NCC(c1ccco1)S(=O)(=O)c1cccs1)c1ccc(Cl)cc1 (stereo not drawn)	-10.1%
Cc1nnc(N2CCN(C(=O)Nc3cccc(C(F)(F)F)c3)CC2)c2nn(-c3ccccc3)c(C)c12	-5.0%
Cc1ccc(CCNC(=O)Cn2c(-c3cccs3)cc3cc(F)ccc32)cc1	-18.4%
CCc1ccc(-n2nc(CO)c(C(=O)NCCCc3ccccc3)n2)cc1	-8.4%
CCc1ccc(C(=O)c2cn(CC(=O)Nc3ccc4c(c3)OCO4)c3ccc(CC)cc3c2=O)cc1	-5.1%
COc1cccc(CNc2ncnc3c2nnn3C)c1	-9.3%
O=C(Nc1ccc2oc(-c3cc(Br)ccc3Cl)nc2c1)c1ccc2ccccc2c1	1.1%
O=C1CC(c2nc(-c3cccc(Cl)c3)no2)CN1c1ccc2c(c1)OCCO2 (stereo not drawn)	-1.8%
CCOc1ccc(CCNC(=O)CN2CCN(Cc3ccc(Cl)cc3)C2=O)cc1OCC	18.0%
Cc1cccc(NC(=O)c2ccc(F)c(S(=O)(=O)N(C)C3CCCCC3)c2)c1	14.9%
COc1ccc(Nc2cc(C)c3cc(NC(=O)c4ccccc4Cl)ccc3n2)cc1	29.3%
Cc1oc2ccc(O)c(CN3CCN(Cc4ccccc4)CC3)c2c1C(=O)Nc1cccc(Cl)c1C	1.0%
CCOC(=O)c1[nH]c2c(c1Cc1ccccc1)C(=O)CC(c1ccc(C(C)(C)C)cc1)C2 (stereo not drawn)	17.2%
Cc1ccc(S(=O)(=O)c2nnn(-c3ccc(F)c(Cl)c3)c2N)cc1	1.1%
NC(=O)c1ccc(NC(=O)C2CCN(S(=O)(=O)Cc3ccccc3)CC2)cc1	0.3%
CN1CC(=O)N(CC(=O)Nc2cccc(C#N)c2)c2ccccc2C1=O	3.8%
COc1ccc2c(C)c(CCC(=O)NCc3ccc(OC)c(OC)c3)c(=O)oc2c1	-1.0%
CCOC(=O)c1c(Nc2cccc(C(=O)OC)c2)nnc(-c2ccccc2)c1-c1ccccc1	28.1%
COc1ccccc1CNC(=O)CSCc1nc(-c2ccc(OC)c(OC)c2)oc1C	4.0%
Cc1ccc(Cn2c(CO)cnc2SCC(=O)Nc2ccc(C)c(Cl)c2)cc1	?
Cc1ccc(-c2nc(S(=O)(=O)c3ccc(C)cc3)c(N3CCN(c4ccccc4)CC3)o2)cc1	0.0%
More entries.
SMILES	miR-21 reporter
Cc1cc([N+](=O)[O-])ccc1NC(c1nnc(-c2ccccc2)o1)c1ccccc1F (stereo not drawn)	-11.3%
Nc1c(C(=O)Nc2ccc(C(=O)O)cc2)sc2nc3c(cc12)CCCC3	-12.5%
CCOc1ccc(NCc2cccn2-c2nnc(N3CCC(C(=O)NC(C)c4ccccc4)CC3)s2)cc1 (stereo not drawn)	22.9%
CCc1ccc(NC(=O)Cn2c(=O)n(CCCC(=O)NCc3ccc4c(c3)OCO4)c(=O)c3ccccc32)cc1	0.0%
Cc1cccc(N2CCN(C(=O)c3sc4nc5n(c(=O)c4c3C)CCC5)CC2C)c1 (stereo not drawn)	-19.3%
CCC(=O)N1CCc2cc(Br)cc(S(=O)(=O)CCC(=O)N(CC)Cc3ccccc3)c21	6.9%
O=C(Cn1ccc2cc(S(=O)(=O)N3CCCCCC3)ccc21)NCCc1ccccc1Cl	-3.2%
CCc1ccccc1NC(=O)c1c(NC(=O)c2ccccc2)sc2c1CCCC2	0.0%
Cc1ccc(C(=O)c2oc3ccccc3c2NC(=O)c2cc(-c3ccccc3)on2)cc1	5.9%
COc1ccccc1-c1c(C)nn2c(-c3ccccc3)cc(-c3ccccc3)nc12	-12.7%
CCc1ccc(NC(=O)C2CCCN(c3nn4cc(-c5ccc(OC)cc5)nc4s3)C2)cc1 (stereo not drawn)	14.6%
CC(C)CCNc1nc2c(-c3ccccc3)nnn2c2ccccc12	-1.4%
CCOc1ccc(NC(=O)C(=O)NCCc2csc(-c3ccc(C(F)(F)F)cc3)n2)cc1	-2.5%
CCCCCn1c(=O)[nH]c2cc(C(=O)NCc3ccc(F)cc3)ccc2c1=O	0.7%
CC(C)(C)c1ccc(C(=O)Nc2ccc(C(=O)OCc3cc(=O)n4ccsc4n3)cc2)cc1	29.3%
Cn1nc(-c2ccccc2F)c2cc(C(=O)Nc3cc(F)ccc3F)sc21	-4.0%
CCn1c2c(c(=O)n3ncc(C(=O)Nc4ccc(F)cc4Cl)c13)CN(Cc1ccc(OC)cc1)CC2	-2.2%
CCOC(=O)COc1ccc(CC)cc1C(=O)c1ccn2nc(-c3ccc(F)cc3)cc2n1	-1.5%
CCOc1ccc(-c2nc(Cn3c(=O)cc(C)c4c(C)nn(-c5ccccc5)c43)c(C)o2)cc1	-30.4%
CCCSc1ncc(Cl)c(C(=O)Nc2nc3ccc(OCC)cc3s2)n1	-8.8%
CCN(C(=O)Cn1cnc2onc(-c3ccc(F)cc3)c2c1=O)c1ccc(OC)cc1	13.2%
COCCCNC(=O)Cn1c(=O)n(-c2cccc(C)c2)c(=O)c2c3c(sc21)CN(C(C)=O)CC3	1.2%
CCc1ccccc1NC(=O)c1cnc2sc(N3CCCC3)nn2c1=O	12.0%
Cc1cccc(C)c1NC(=O)CCSc1nc(-c2ccc3c(c2)OCO3)cc(C(F)(F)F)n1	-2.9%
COc1ccc(S(=O)(=O)NCC(c2ccc(N(C)C)cc2)N2CCc3ccccc32)cc1F (stereo not drawn)	-0.4%

Some of the entries so far, comma-delimited.
compound,miR-21 reporter
Cc1cc([N+](=O)[O-])ccc1NC(c1nnc(-c2ccccc2)o1)c1ccccc1F (stereo not drawn),-11.3%
Nc1c(C(=O)Nc2ccc(C(=O)O)cc2)sc2nc3c(cc12)CCCC3,-12.5%
CCOc1ccc(NCc2cccn2-c2nnc(N3CCC(C(=O)NC(C)c4ccccc4)CC3)s2)cc1 (stereo not drawn),22.9%
CCc1ccc(NC(=O)Cn2c(=O)n(CCCC(=O)NCc3ccc4c(c3)OCO4)c(=O)c3ccccc32)cc1,0.0%
Cc1cccc(N2CCN(C(=O)c3sc4nc5n(c(=O)c4c3C)CCC5)CC2C)c1 (stereo not drawn),-19.3%
CCC(=O)N1CCc2cc(Br)cc(S(=O)(=O)CCC(=O)N(CC)Cc3ccccc3)c21,6.9%
O=C(Cn1ccc2cc(S(=O)(=O)N3CCCCCC3)ccc21)NCCc1ccccc1Cl,-3.2%
CCc1ccccc1NC(=O)c1c(NC(=O)c2ccccc2)sc2c1CCCC2,0.0%
Cc1ccc(C(=O)c2oc3ccccc3c2NC(=O)c2cc(-c3ccccc3)on2)cc1,5.9%
COc1ccccc1-c1c(C)nn2c(-c3ccccc3)cc(-c3ccccc3)nc12,-12.7%
CCc1ccc(NC(=O)C2CCCN(c3nn4cc(-c5ccc(OC)cc5)nc4s3)C2)cc1 (stereo not drawn),14.6%
CC(C)CCNc1nc2c(-c3ccccc3)nnn2c2ccccc12,-1.4%
CCOc1ccc(NC(=O)C(=O)NCCc2csc(-c3ccc(C(F)(F)F)cc3)n2)cc1,-2.5%
CCCCCn1c(=O)[nH]c2cc(C(=O)NCc3ccc(F)cc3)ccc2c1=O,0.7%
CC(C)(C)c1ccc(C(=O)Nc2ccc(C(=O)OCc3cc(=O)n4ccsc4n3)cc2)cc1,29.3%

(listing goes on)
SMILES	miR-21 reporter
COc1ccc(S(=O)(=O)Nc2ccc3c(c2)CCCN3S(=O)(=O)c2ccc(C)cc2)cc1F	-5.8%
COc1cc(NC(=O)C2CCCN(S(=O)(=O)c3cn(C)cn3)C2)cc(OC)c1 (stereo not drawn)	-1.8%
COc1ccc(NC(=O)C(c2ccccc2)N2Cc3ccccc3C2=O)cc1 (stereo not drawn)	-2.4%
O=[N+]([O-])c1ccc(S(=O)(=O)NCc2nc3cccnc3n2Cc2ccccc2Cl)cc1	9.8%
CCOc1ccc(S(=O)(=O)c2cn(Cc3ccc(OC)cc3)c3ccc(F)cc3c2=O)cc1	0.6%
Cc1cccc(NC(=O)c2ccc(-c3nc(CSc4ccccc4)c(C)o3)cc2)c1C	15.1%
COc1ccccc1NC(=O)C1=C(C)Nc2nc3ccccc3n2C1c1cccc(Br)c1 (stereo not drawn)	27.3%
Cc1ccc(NC(=O)CSc2ccc(-c3cccs3)nn2)cc1Cl	6.2%
Cc1ccccc1CNC(=O)c1ccccc1NC(=O)c1nsc2ccccc12	-18.6%
O=C(NC1CC(=O)N(c2ccccc2)C1)c1ccc(Br)o1 (stereo not drawn)	-1.7%
Cn1c(=O)c2nc(SCC(=O)Nc3ccc(Cl)c(Cl)c3)n(C)c2n(C)c1=O	-2.9%
Fc1ccc(Nc2ncnc3c2nc2n3CCCC2)cc1	-12.8%
COCCNC(=O)c1c(-c2ccccc2)c(-c2ccccc2)nn(C)c1=O	-6.9%
CCCCN1CC(c2nc3ccccc3n2CCCCOc2ccc(C)cc2C)CC1=O (stereo not drawn)	0.4%
CCOc1ccc(C2c3cc(OCC)c(OCC)cc3CC(=O)N2c2ccc(C(=O)O)cc2)cc1OCC (stereo not drawn)	-28.3%
COc1ccc(CCNC(=O)C(=O)NCC(c2ccco2)S(=O)(=O)c2cccs2)cc1OC (stereo not drawn)	-1.7%
Cc1ccc(C)c(Cn2c(=O)n(CCCCC(=O)NCc3ccccc3Cl)c(=O)c3ccccc32)c1	-7.7%
Cc1c(Cl)cccc1NC(=O)Cn1c(CCC(=O)O)ccc1-c1cccs1	1.9%
O=C(Nc1ccccc1Br)c1cc(CN2CCCC2)on1	-49.0%
COCCCN1C(=O)c2[nH]nc(-c3ccccc3O)c2C1c1ccc(OCc2ccccc2)cc1 (stereo not drawn)	?
N#Cc1c[nH]n2c(NC3CCCC3)c(-c3ccc(Br)cc3)nc12	28.9%
CCOc1ccc(NC(=O)c2c(NC(=O)c3cccs3)sc3c2CCC(C(C)(C)C)C3)cc1 (stereo not drawn)	-2.5%
CCc1ccccc1NC(=O)c1cc(-c2ccc(Cl)s2)nc2ccccc12	4.9%
Cc1ccc(NC(=O)C(Cc2ccccc2)NS(=O)(=O)c2ccc3c(c2)c(=O)n(C)c(=O)n3C)c(C)c1 (stereo not drawn)	2.1%
CCN(CC)c1ccc(NC(=O)CCc2c(C)nc3ncnn3c2C)c(C)c1	-12.5%
Remaining list, next part
SMILES	miR-21 reporter
Cc1cccc(NC(=O)CCN2CCN(c3ccccc3F)CC2)c1	-3.7%
CSc1cccc(NC(=O)c2ccc3c(c2)CCCN3S(C)(=O)=O)c1	?
O=C(CN1C(=O)C2(SCC(=O)N2c2ccc(F)cc2)c2ccccc21)NCCc1ccccc1 (stereo not drawn)	6.2%
CCOC(=O)c1[nH]c2c(c1Cc1ccccc1OC)C(=O)CC(c1ccccc1)C2 (stereo not drawn)	7.1%
CSc1nc2sc3c(c2c(=O)n1-c1ccc(C)c(Cl)c1)CCN(C(C)=O)C3	0.9%
Cc1ccc(Cl)cc1-n1ncc2c(NCCc3ccccc3)ncnc21	-1.2%
Clc1cccc(N2CCN(c3nc4ccccc4c4nc(-c5cccnc5)nn34)CC2)c1	1.2%
Cc1cc(C)c2c(=O)cc(CSCC(=O)Nc3ccccc3Cl)[nH]c2c1	0.9%
CCc1ccc(S(=O)(=O)N2CCN(c3ccc(Cl)c(Cl)c3)CC2)cc1	0.7%
CCc1cccc(NC(=O)CSc2nc3ccccc3nc2N2CCCCC2)c1	17.5%
COc1ccc2c(c1)c1c(c(=O)n(-c3ccc(C)cc3)c(=O)n1CC(=O)N1CCCC1)n2C	-0.4%
Cn1c(=O)n(C)c2cc(N3CCOCC3)c(NS(=O)(=O)c3ccc(Br)cc3)cc21	-13.7%
COCCn1c(=N)c(C(=O)NC(C)c2ccccc2)cc2c(=O)n3cc(C)ccc3nc21 (stereo not drawn)	-2.9%
CN(C(=O)CSc1nnc(COc2ccccc2)o1)c1ccccc1	-1.4%
O=C(CSc1nc2ccccc2nc1Cc1ccc(Cl)cc1)NCCc1ccccc1	-9.0%
Cc1ccc(-c2nnc(Nc3ccc(Br)cc3)c3ccccc23)cc1S(=O)(=O)NCC1CCCO1 (stereo not drawn)	6.1%
COc1ccc(Nc2nc(N)nc(CSc3nc4cc(OC)ccc4s3)n2)cc1	?
Cc1ccc(S(=O)(=O)N2CCCC2C(=O)Nc2ccc(Br)cc2)cc1 (stereo not drawn)	26.2%
Cc1ccc2c(c1)c1c(c(=O)n(-c3cccc(Cl)c3)c(=O)n1CC(=O)N1CCCC1)n2C	-0.4%
CCOc1ccc(-n2c(=O)c3sc4ccccc4c3n(Cc3cccc(C)c3)c2=O)cc1	-1.2%
COc1ccc(CNC(=O)CC(C)n2nc(C)cc2C)cc1 (stereo not drawn)	-5.7%
COc1ccccc1CNc1ncnc2c1c(-c1ccccc1)cn2-c1ccc(Br)cc1	-2.0%
COc1ccc(NC(=O)CSc2ncc3c(n2)-c2ccccc2N(C)S3(=O)=O)cc1Cl	10.9%
O=C(Nc1cccc(C(F)(F)F)c1)c1cc(CN2CCOCC2)on1	-0.1%
O=C(NCc1ccc(F)cc1)c1ccc2c(c1)N(Cc1c(F)cccc1Cl)C(=O)CS2	18.0%
COc1cc2c(cc1NC(=O)COc1ccc(Cl)cc1)oc1ccccc12	-4.5%
Cc1ccc(S(=O)(=O)c2nc(-c3cccc(Cl)c3)oc2NCc2ccccc2)cc1	3.9%
Cc1ccccc1C(=O)Nc1ccccc1C(=O)OCc1cc(=O)n2ccsc2n1	-0.9%
COc1ccc(CCN2CCC(CNC(=O)c3cnn(-c4ccc(C)cc4)c3C3CCN(C(=O)OC(C)(C)C)CC3)CC2)cc1	4.6%
O=C(CC1N=C2c3ccccc3N=C(SCc3cccc(F)c3)N2C1=O)NCc1ccc2c(c1)OCO2 (stereo not drawn)	-12.8%
